KCNQ2 enhance – enhances the rat KCNQ2 potassium channel | O88943 | CHO-K1 KCNQ2, FluxOR thallium flux fluorescence; active compounds read high | B-score at 10 µM | 310,000 tested, 0.54% active | AID 2239;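 active = fluorescence ratio B-score at least 3 SD of library B-scores, with initial fluorescence B-score within 3 SD, cut at about 5.3 in these data; same plate scores as AID 2156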;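 also: B-score of peak minus minimum over baseline fluorescence ratio after K+ and Tl+ stimulus; positive B-score means potentiation of KCNQ2 with more thallium influx and brighter signal; only the inactives scoring about 0 or higher are listed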
Target sequence (O88943 whole entry, looked up): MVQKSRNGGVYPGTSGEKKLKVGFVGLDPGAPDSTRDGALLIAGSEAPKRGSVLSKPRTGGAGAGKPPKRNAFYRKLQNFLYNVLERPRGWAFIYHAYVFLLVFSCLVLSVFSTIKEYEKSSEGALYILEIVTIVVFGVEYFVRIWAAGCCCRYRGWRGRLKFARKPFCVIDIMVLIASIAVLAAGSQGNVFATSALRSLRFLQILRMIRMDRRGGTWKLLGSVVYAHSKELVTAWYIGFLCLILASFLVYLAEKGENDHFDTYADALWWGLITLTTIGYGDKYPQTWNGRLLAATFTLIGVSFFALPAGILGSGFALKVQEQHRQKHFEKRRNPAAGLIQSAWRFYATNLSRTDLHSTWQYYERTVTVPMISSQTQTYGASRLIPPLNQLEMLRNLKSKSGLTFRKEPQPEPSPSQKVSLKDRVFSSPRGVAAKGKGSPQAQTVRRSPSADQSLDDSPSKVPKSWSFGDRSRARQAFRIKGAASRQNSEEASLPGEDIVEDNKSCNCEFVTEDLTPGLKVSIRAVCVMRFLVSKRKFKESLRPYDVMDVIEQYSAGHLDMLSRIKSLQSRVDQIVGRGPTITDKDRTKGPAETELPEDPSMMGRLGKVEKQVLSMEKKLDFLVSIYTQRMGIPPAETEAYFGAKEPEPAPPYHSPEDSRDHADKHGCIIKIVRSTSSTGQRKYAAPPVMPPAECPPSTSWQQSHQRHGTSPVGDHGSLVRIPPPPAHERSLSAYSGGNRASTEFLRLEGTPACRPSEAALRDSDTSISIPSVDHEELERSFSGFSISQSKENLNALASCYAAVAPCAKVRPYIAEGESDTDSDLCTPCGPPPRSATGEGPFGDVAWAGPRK
KCNQ2 enhance baseline – recorded beside KCNQ2 enhance, whose call it bears; B-score; compound at 10 µM; measured here: initial fluorescence intensity artifact check;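 brightness before thallium and not channel activity; 0 = typical well and far values either way flag optical interference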
The depositor's hits bear a star. These rows are one share of the data; count on the stated rates, not on these rows.

SMILES	KCNQ2 enhance	KCNQ2 enhance baseline
O=C(CCC(=O)c1ccc(F)cc1)NN1C(=O)NC2(CCCCC2)C1=O	0.01	-0.56
CCC1CCCCN1C(=O)CSc1nc(C)cc(C)n1 (stereo unspecified)	3.3	0.83
Cc1csc(NC(=O)c2cc3c(s2)CCCCC3)n1	1.28	-1.15
Cc1cccc(N(C(=O)c2ccco2)C(C(=O)NC2CCCC2)c2cccnc2)c1C (stereo unspecified)	1.77	-1.1
CCC(C)(C)NC(=O)CN(C(=O)CNS(=O)(=O)c1ccc(F)cc1)c1ccc2c(c1)OCCO2	1.69	-0.2
Cc1nnc(SCC(=O)NC(C)(C)C)n1NCc1c(F)cccc1Cl	1.02	0.85
COc1ccc(/C=C/C(=O)OC(C)C(=O)c2ccccc2)cc1OC (stereo unspecified)	0.81	0.47
COc1ccc(CC(=O)NCc2ccc3c(c2)OCO3)cc1	0.91	-0.31
COc1ccc(-c2noc(CCC(=O)NCCCN3CCN(c4ccc(F)cc4)CC3)n2)cc1	1.26	-1.55
COc1ccccc1N1CCN(C2CCN(S(=O)(=O)c3ccc(NC(C)=O)cc3)CC2)CC1	0.37	0.29
O=c1cc(C(F)(F)F)[nH]c(=S)n1-c1ccccc1	0.53	0.04
Cc1cc(=O)oc2cc(OC(=O)c3cncc(Br)c3)ccc12	1.03	-0.13
Cc1ccc2sc(NC(=O)C3CC3)nc2c1C	0.05	0.7
Cc1cccc(-n2c(O)c(C=Nc3ccccc3O)c3ccccc3c2=O)n1	0.59	-1.02
O=C(Nc1ccccc1C(F)(F)F)N1CCC(n2c(=O)[nH]c3ccccc32)CC1	1.16	-1.76
CCOc1ncccc1C(=O)OC(C)C(=O)NC(=O)NC1CCCCC1 (stereo unspecified)	1.09	-0.52
Cc1cc(C)n2ncc(S(=O)(=O)c3ccccc3)c2n1	0.84	-0.08
COc1cccc(CNC(=O)c2ccccc2N)c1	1.17	-0.94
CN1CCN(CCCNC(=O)c2ccc(NC(=O)C3=CSCCO3)cc2)CC1	1.71	0.01
Cc1ccc(/C=N/NC(=O)c2cc3c(ccc4ccccc43)o2)o1	0.07	-0.03
C=CCNC(=S)N1CCC(C(=O)c2ccc(Cl)cc2)CC1	1.35	-1.35
CCc1ccc(NC(=S)N(Cc2cccc(Br)c2)CC2CCC(C(=O)O)CC2)cc1 (stereo unspecified)	0.6	1.06
O=C(O)CSc1cc(C(=O)c2ccccc2O)cn2c(=O)c3c4c(sc3nc12)CCCC4	0.59	0.86
O=C(NCC(c1ccco1)N1CCOCC1)c1ccc(Cl)cc1 (stereo unspecified)	0.81	-0.47
CCOP(=O)(NC12CC3CC(CC(C3)C1)C2)NC12CC3CC(CC(C3)C1)C2	1.46	-0.77

Next part:
SMILES	KCNQ2 enhance	KCNQ2 enhance baseline
Cc1cnc2c(C(=O)O)cnn2c1	0.8	-0.33
COc1cc(C(=O)N/N=C/c2cn(Cc3ccccc3)c3ccccc23)ccc1O	1.42	-0.01
CCc1ccccc1NC(=O)CC(NCc1ccccc1)C(=O)O (stereo unspecified)	0.51	1.8
CC(C)C(=O)N1CCN(c2ccc(NC(=O)c3ccc4c(c3)OCCO4)cc2)CC1	0.99	7.99
CCN=C(NCC)SC1CC(=O)N(CCc2ccccc2)C1=O (stereo unspecified)	1.72	-0.85
COc1cc(NS(=O)(=O)c2ccc(NC(=O)c3cccnc3)cc2)ncn1	0.07	-3.05
CSc1nc(N)nc(SCC(=O)OC(C)C)c1C#N	1.23	-0.94
CCN1CCN(C(=O)CCNC(=O)Cn2ccc3ccccc3c2=O)CC1	0.63	1.86
Cc1cc(C)c(S(=O)(=O)Nc2nnc(C3CCCCC3)s2)c(C)c1	1.09	2.64
CCCc1cc2c(cc1NC(=O)c1ccccc1C)OCO2	0.25	-0.57
CN(c1ncc(C(F)(F)F)cc1Cl)n1cc(C(N)=O)c2ccccc2c1=O	0.47	1.89
CCOC(=O)c1cc([N+](=O)[O-])sc1NC(=O)CC	0.21	-0.57
COc1ccc(N(CC(=O)NC2CCCC2)C(=O)Cn2nnc(-c3ccc(C)cc3)n2)cc1OC	0.31	0.43
Cc1cc2oc(=O)cc(CN(C)Cc3cccc(F)c3)c2cc1C	2.02	-0.04
c1ccc(Cc2nn3c(Cn4cnc5ccccc54)nnc3s2)cc1	0.89	-0.62
CC1=N/C(=C/c2cccnc2)C(=O)O1	0.3	0.29
COc1cccc2c1OCC(C(=O)OCc1cccnc1)=C2	0.33	-0.89
COc1ccc(C(=O)Nc2cccc(C(=O)N3CCCC3)c2)cc1	0.7	1.17
COc1cc(/C=N/N(C)C)cc(Br)c1O	0.43	1.61
Cc1nc2ccccn2c1C(=O)NCc1ccc2c(c1)OCO2	2.79	0.74
O=C(C1CCN(C2CC(=O)N(c3ccc(F)cc3)C2=O)CC1)N1CCOCC1 (stereo unspecified)	0.41	-1.16
CCN(CC)S(=O)(=O)c1ccc(NC(=S)Nc2ccccc2)cc1	0.47	0.1
CCc1ccc(N(C(=O)CNC(=O)c2cccs2)C(C(=O)NC(C)(C)C)c2cc(OC)c(OC)c(OC)c2)cc1 (stereo unspecified)	0.62	-0.11
CCOC(=O)c1c[nH]c2c(C)ccc(Cl)c2c1=O	0.96	2.01
CCOc1ccccc1NC(=O)c1nc[nH]c1C(=O)Nc1ccccc1OCC	1.67	-0.11

Already shown: entries from further up.
SMILES	KCNQ2 enhance	KCNQ2 enhance baseline
Cc1cnc2c(C(=O)O)cnn2c1	0.8	-0.33
COc1cc(C(=O)N/N=C/c2cn(Cc3ccccc3)c3ccccc23)ccc1O	1.42	-0.01

Compounds above that contain a CF3 group:
SMILES	KCNQ2 enhance	KCNQ2 enhance baseline
O=c1cc(C(F)(F)F)[nH]c(=S)n1-c1ccccc1	0.53	0.04
O=C(Nc1ccccc1C(F)(F)F)N1CCC(n2c(=O)[nH]c3ccccc32)CC1	1.16	-1.76
CN(c1ncc(C(F)(F)F)cc1Cl)n1cc(C(N)=O)c2ccccc2c1=O	0.47	1.89

Additional compounds follow:
SMILES	KCNQ2 enhance	KCNQ2 enhance baseline
Cc1ccc(CNC(=O)C2CCCN(S(=O)(=O)c3ccc(F)cc3)C2)cc1 (stereo unspecified)	0.48	0.24
O=C(Cc1ccccc1Cl)NCc1cccnc1	0.67	-2.19
COc1ccccc1S(=O)(=O)CC(O)COc1ccc(F)cc1Cl (stereo unspecified)	0.5	0.74
CCCC(=O)Nc1nc(-c2ccc(Cl)s2)cs1	0.62	-0.08
CCCOc1ccccc1OCC(=O)Nc1ccc(S(=O)(=O)N2CCCC2)cc1	0.14	0.33
COc1ccc(-c2csc(NC(=O)CN3C(=O)NC4(CCCC4)C3=O)n2)cc1	1.39	2.33
Cc1nc(NCCc2cnc[nH]2)c2oc3ccccc3c2n1	0.94	0.56
CCCCn1nnc(NC(=O)c2ccc(-c3ccccc3[N+](=O)[O-])o2)n1	0.39	-0.14
O=C(/C=C/c1ccc(Cl)cc1)N1CCN(c2ccc([N+](=O)[O-])c(N3CCOCC3)c2)CC1	1.65	0.03
CC(=O)N(C(C)=O)n1c(/C=C/c2cccc([N+](=O)[O-])c2)nc2ccccc2c1=O	0.02	-0.4
COc1ccc(-c2cc(C(=O)N3CCCC3)no2)cc1OC	0.21	-1.03
CCOC(=O)c1cc2sccc2n1Cc1ccccc1	0.33	-0.72
CC(C)(/C=N/O)/[N+]([O-])=C/c1ccco1	1.06	-0.67
CC(C)OP(=O)(CCP(=O)(OC(C)C)OC(C)C)OC(C)C	0.66	-1.62
CCCCN1C[C@H](C)[C@@H](CC(=O)NCc2ccccc2)C1=O	0.09	0.04
COc1ccccc1OCC(=O)Nc1ccc(S(=O)(=O)Nc2cc(C)on2)cc1	1.34	-2.01
CCOc1cc(N2CCOCC2)c(OCC)cc1NC(=O)Cc1cccc(OC)c1	10.4*	0.69*
Cc1cccc(NC(=O)c2nc[nH]c2C(=O)N[C@@H](C)C(=O)OCc2ccccc2)c1	1.93	0.07
Cc1ccnc(NS(=O)(=O)c2ccc(NC(=O)CSc3nc(-c4ccccc4)cc(=O)[nH]3)cc2)n1	0.29	-0.29
O=C(CSc1nnc(CNC(=O)c2ccccc2F)o1)c1ccccc1	1.25	-0.74
CCN(CC(=O)Nc1ccccc1C(F)(F)F)C(=O)CCc1c(C)[nH]c(=O)c(C#N)c1C	1.14	0.88
O=C(Nc1nnc(SCc2ccc(F)cc2)s1)c1ccc2ncsc2c1	0.88	-0.28
Cc1ccc(NC(=O)Nc2cccc3ccccc23)cc1	0.59	0.97
FC(F)(F)c1ccc(N2CCN(Cc3ccc4c(c3)OCO4)CC2)nc1	0.14	-1.22
CC(=O)c1ccc(NC(=O)C2CCCN2S(=O)(=O)c2ccc(C)cc2)cc1 (stereo unspecified)	0.37	-0.04

5 entries from above, with values under each structure.
Each structure is followed by: KCNQ2 enhance	KCNQ2 enhance baseline
CCN=C(NCC)SC1CC(=O)N(CCc2ccccc2)C1=O (stereo unspecified)
    1.72	-0.85
COc1cc(NS(=O)(=O)c2ccc(NC(=O)c3cccnc3)cc2)ncn1
    0.07	-3.05
CSc1nc(N)nc(SCC(=O)OC(C)C)c1C#N
    1.23	-0.94
CCN1CCN(C(=O)CCNC(=O)Cn2ccc3ccccc3c2=O)CC1
    0.63	1.86
Cc1cc(C)c(S(=O)(=O)Nc2nnc(C3CCCCC3)s2)c(C)c1
    1.09	2.64

More results follow.
SMILES	KCNQ2 enhance	KCNQ2 enhance baseline
CC(CNS(=O)(=O)c1ccc(Cl)cc1)n1cncn1 (stereo unspecified)	0.36	0.18
Cc1cc(C)c(S(=O)(=O)NCCOc2ccccc2)c(C)c1-n1cnnn1	0.86	-2.99
O=c1cc(O)c2ccc(O)cc2o1	0.27	1.02
Cc1cccc(-c2nnc(SCC(=O)N3CCOCC3)o2)c1	0.48	-1.44
COC(=O)c1ccc(NC(=O)COC(=O)C2CCC2)cc1	0.27	-0.11
COc1ccc2nc3sc(C(=O)NCCCN4CCc5ccccc5C4)cc3cc2c1	0.43	-1.41
CCOC(=O)Cn1c(=O)c(-c2cc(Br)ccc2N)nc2ccccc21	0.49	0.13
CCN1CCCC1CNC(=O)C(=O)NC(C)C (stereo unspecified)	1.72	1.3
COc1ccc2nc(N(CCN(C)C)C(=O)/C=C/c3cccs3)sc2c1	0.84	-0.63
CC1=N/C(=C/c2cc(Br)cc(Br)c2O)C(=O)O1	0.65	2.54
COc1ccc(OC)c(NS(=O)(=O)c2cc(OC)ccc2OC)c1	1.78	1.53
CCN(CC)S(=O)(=O)c1ccc2nc(COC(=O)c3n[nH]c4ccccc34)[nH]c2c1	0.21	0.67
COc1ccc(CCNC(=O)C2CCN(S(=O)(=O)c3ccc(NC(C)=O)cc3)CC2)cc1OC	1.19	-0.02
O=C(O)c1ccc(-n2cccc2)cc1O	0.94	1.99
CCOc1ccsc1C(=O)NNC(=O)c1ccco1	0.62	2.05
COC(=O)c1ccc2c(=O)n(CCCCCC(=O)NCc3ccccc3)c(=O)[nH]c2c1	0.52	-0.58
C/C(=N\NC(=O)Cn1nnc2ccccc21)c1ccco1	0.34	0.1
Cc1cc(C)cc(-n2c(C)c3c(C)nnc(C)c3c2C)c1	0.06	0.1
CCc1nc(Nc2ccc(F)cc2)c2oc3ccccc3c2n1	0.25	-1.79
Cc1ccc(S(=O)(=O)N2CCCOC2CNC(=O)C(=O)NC2CCCC2)cc1 (stereo unspecified)	0.01	-0.83
Cc1nc(NC(=O)C23CC4CC(CC(C4)C2)C3)sc1Cc1ccc2c(c1)OCO2	20.8*	-2.03*
COc1ccccc1C(=O)NNC(=O)c1ccncc1	0.01	0.02
S=c1nc(-c2ccccc2)n(CCCn2ccnc2)c2c1CCCC2	0.12	3.28
O=S(=O)(NCc1ccco1)N1CCOCC1	0.87	-0.87
Cc1c(C)n(Cc2ccccc2)c2ncnc(NCCO)c12	0.88	-0.89

Further entries
SMILES	KCNQ2 enhance	KCNQ2 enhance baseline
COC(=O)NNS(=O)(=O)c1ccc(C)cc1	1.12	0.49
COc1ccc(OC)c(C2C(C(N)=O)=C(C)Nc3nc(CCCO)nn32)c1 (stereo unspecified)	0.04	-1.42
Cc1ccc(NC(=O)Cn2nnc(C(=O)NCc3cccs3)c2N)cc1Cl	0.05	-0.03
COc1ccccc1NC(=O)CSc1nnc(Cn2cnc3ccccc32)n1C	0.73	1.29
CN(CC(=O)Nc1ccccc1Cl)C(=O)COC(=O)c1ccc(Cl)cc1[N+](=O)[O-]	1.76	0.52
CCOc1ccc(NC(=O)CN2CCN(Cc3c(F)cccc3F)CC2)cc1	1.82	0.17
O=C1OCc2cccc3cccc1c23	0.63	1.36
CN(C)c1ccc(/C=C(\NC(=O)c2ccccc2)C(=O)NCc2ccncc2)cc1	0.04	0
CC(NC1CCCC1)c1ccccc1 (stereo unspecified)	0.98	1.16
O=C(N/N=C/c1ccc(O)cc1O)/C(=C/c1ccccc1)CCO	0.64	0.38
CC(=O)CCn1cc([N+](=O)[O-])nc1C	1.33	0.47
Cc1nn2cnnc2c(C)c1Cc1c(F)cccc1Cl	1.42	-0.54
CC1Cc2nc(SCC(=O)Nc3nc4ccccc4s3)n(C)c(=O)c2S1 (stereo unspecified)	3.97	-0.93
O=C(NCc1ccncc1)C(=O)C1C(=O)Nc2ccccc21 (stereo unspecified)	0.74	0.01
O=C(NCCn1cccn1)C1CCC(=O)N(CC2CCCCC2)C1 (stereo unspecified)	0.63	-0.98
CCOC(=O)N1CCC(Nc2c(-c3ccc(C)c(C)c3)c(=O)c2=O)CC1	0.19	0
CCC(C)NC(=O)CN1C(=O)NC2(CCc3ccccc3C2)C1=O (stereo unspecified)	0.91	0.17
CCc1ccc(NC(=O)CSc2nnnn2-c2cccnc2)cc1	0.14	0.89
O=c1[nH]snc1-c1c(Cl)cccc1Cl	0.06	1.12
Cc1ccnc(SCC(=O)N2CCc3ccccc32)n1	0.44	-0.02
O=C(NC1CCN(S(=O)(=O)c2cccc(F)c2)CC1)c1ccc(F)cc1	1.22	-2.48
O=C(NCc1nnc(SCC(=O)N2CCOCC2)o1)c1c(F)cccc1Cl	0.66	-1.28

Compound activity: PubChem BioAssay, Johns Hopkins Ion Channel Center
